# PINK1 expr mod – A Quantitative High throughput Screen to Identify Chemical Modulators of PINK1 Expression; PINK1 immunofluorescence, high-content cytometry, 24 h; 410,000 compounds, 0.2% hits; Potency, µM (titrated, usually from 76.6 µM), without a hit: at the highest dose activation (PINK1 increase), hits mostly activators; active = well fitted activation curve with a large enough effect; inconclusive = small, poorly fitted or top-dose-only effect; inactive = flat fitted curve, though single readings scatter; cell line not stated here;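 further: potency means the concentration at half of the fitted maximal effect; % of control where 0% means no effect; nearly all actives have a fitted effect of over 65% in size; a mitochondrial uncoupler was the plate control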
#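 PINK1 protein, normally rapidly degraded, was detected by immunofluorescence after 24 hour compound treatment of a stable cell line. Titration data (5 concentrations) came from laser-scanning cytometry, with CCCP-treated wells as controls.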
# TRPML1 blocker – qHTS for Inhibitors of the Human Mucolipin Transient Receptor Potential 1 (TRPML1) | TRPML1-inducible cells, Ca2+ dye fluorescence, FDSS; active compounds read low; inhibition of EC80 agonist-evoked calcium signal | activity change, negative = inhibition, % (test concentration not listed) | 390,000 compounds, 0.02% hits | AID 624415, 2012; in the data active means activity change below about -50%; inconclusive means about -30% to -50%; inactive means above about -30%;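 further: stimulus is agonist 54-4 at its EC80 concentration; on the % scale 0 is the no-effect control and ±100 the full control effect; compound concentration not given in the record; the text of the record puts the active cut at -80%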
#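 TRPML1-DL cells, Tet-induced overnight (~16 h, 37 °C) at 1,500 cells/well, were loaded with Ca8 no-wash dye plus quencher for 45-90 min at room temperature. Compounds were pinned during FDSS kinetic reading; agonist 54-4 at EC80 (4 uM final) then added.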
# ClpP mod – qHTS Assay for Activators of ClpP; ATP-dependent Clp protease proteolytic subunit (Bacillus subtilis (strain 168)), P80244; purified B. subtilis ClpP, FRET peptide cleavage, 20 min; Potency, µM (doses to about 57.5 µM), for the others: at the top dose activity change, negative = active; 340,000 compounds, 1.9% hits; active = well fitted falling curve with a large enough effect; inconclusive = small, poorly fitted or top-dose-only effect; inactive = no such curve, though single readings can be large or run the other way; further: potency means the concentration at half of the fitted maximal effect; the source files actives as falling curves though it sought activators and does not explain the sign; nearly all actives have a fitted effect of over 65% in size; many hits overshoot -100%
# Target sequence (P80244 whole entry, looked up): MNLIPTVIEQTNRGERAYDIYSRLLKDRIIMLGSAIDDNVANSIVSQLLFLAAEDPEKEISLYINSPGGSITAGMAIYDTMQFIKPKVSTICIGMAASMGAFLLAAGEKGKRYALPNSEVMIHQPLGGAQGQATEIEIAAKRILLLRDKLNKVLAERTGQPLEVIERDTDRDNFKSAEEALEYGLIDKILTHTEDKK
#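 FRET quenching reversal measured ClpP activation: 10 microg/mL B. subtilis ClpP at pH 8 with the FRET-FV decapeptide, read at 430 nm after 320 nm excitation. The 20-min minus 0-min signal was scaled between DMSO/no-enzyme wells and ADEP (5.8 microM final).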
# Menin-MLL FL inh – qHTS Assay for Inhibitors Targeting the Menin-MLL Interaction in MLL Related Leukemias: Competition With Fluorescein Labeled MLL-derived Peptide; Fluorescence polarization, fluorescein-MLL peptide displacement from menin; FP activity change, % at 61.4 µM; 290,000 tested, under 10 active; AID 1766, 2009; inconclusive = falling polarisation curve, or a change in total fluorescence; inactive = total fluorescence flat and polarisation flat or rising; no compound was filed as active; the % refers to the polarisation; negative = inhibition;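 further: % of control where 0% means no effect; inhibitors lower the polarisation; unlabelled MLL peptide was the positive control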
# TRPV1 PAM – HTS Assay for Compounds that Act as Potentiators of the Vanilloid Receptor 1. TRPV1-expressing cells, Fluo-8 calcium influx, capsaicin EC20 potentiation; host cell line not named in the record; control for the full effect not named in the record. potentiation, % at 8.33 µM. 320,000 compounds, 0.02% hits; active means potentiation above 80%; inconclusive means 30% to 80%; inactive means below 30%; further: 0% is about no effect
# Target sequence (Q8NER1 whole entry, looked up): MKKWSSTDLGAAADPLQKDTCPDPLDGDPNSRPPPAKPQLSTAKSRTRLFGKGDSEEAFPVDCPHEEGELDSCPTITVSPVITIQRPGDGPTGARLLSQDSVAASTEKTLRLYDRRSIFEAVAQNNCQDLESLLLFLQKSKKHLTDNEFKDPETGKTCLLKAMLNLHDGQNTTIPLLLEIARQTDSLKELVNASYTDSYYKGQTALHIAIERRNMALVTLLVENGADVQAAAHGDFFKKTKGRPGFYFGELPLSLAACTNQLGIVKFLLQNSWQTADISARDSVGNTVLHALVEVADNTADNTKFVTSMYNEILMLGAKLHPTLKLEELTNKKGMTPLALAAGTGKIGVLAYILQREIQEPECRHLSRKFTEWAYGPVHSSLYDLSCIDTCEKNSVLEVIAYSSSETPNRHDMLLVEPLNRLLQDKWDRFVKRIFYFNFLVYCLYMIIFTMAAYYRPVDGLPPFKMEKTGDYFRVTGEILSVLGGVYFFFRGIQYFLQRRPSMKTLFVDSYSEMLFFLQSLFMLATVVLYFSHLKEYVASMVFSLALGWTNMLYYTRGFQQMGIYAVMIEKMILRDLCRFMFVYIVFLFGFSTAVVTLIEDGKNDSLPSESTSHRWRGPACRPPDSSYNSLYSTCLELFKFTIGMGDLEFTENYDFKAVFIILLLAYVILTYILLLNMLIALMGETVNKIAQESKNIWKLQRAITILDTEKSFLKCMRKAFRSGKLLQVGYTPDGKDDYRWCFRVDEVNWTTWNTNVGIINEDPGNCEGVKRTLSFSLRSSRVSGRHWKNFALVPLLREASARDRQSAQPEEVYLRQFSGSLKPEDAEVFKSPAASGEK
#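 Cells expressing TRPV1 were dye-loaded with Fluo-8 and read kinetically: 10 s baseline, 3 min after compound (agonist portion), then 2 min after EC20 capsaicin (allosteric enhancer portion). Calcium-bound dye fluorescence at 480/520 nm.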
# Sfp inh – qHTS Assay for Inhibitors of Bacillus subtilis Sfp phosphopantetheinyl transferase (PPTase). 4'-phosphopantetheinyl transferase ffp (Bacillus subtilis), Q9F4F7. Biochemical Sfp PPTase activity, qHTS. Potency, µM, for the others: max response, negative = inhibition, hits mostly inhibitors. 310,000 compounds, 3.5% hits; active means well fitted inhibition curve with a large enough effect; inconclusive means small, poorly fitted or top-dose-only effect, or another doubt; inactive means no such curve, though single readings can be large or run the other way;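 further: the enzyme is Sfp with the accession as filed and its product quenches rhodamine fluorescence; potency means the concentration at half of the fitted maximal effect; 0% = enzyme reaction without inhibitor and -100% = no enzyme wells; top concentration of the series not given in the record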
#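 Compounds were incubated with enzyme (final 15 nM) for 15 min at room temperature before substrate addition started the reaction. Fluorescence at 525 nm excitation, 598 nm emission was recorded immediately and after 30 minutes.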
# TRPML1 ag – qHTS for Agonists of the Human Mucolipin Transient Receptor Potential 1 (TRPML1) | Mucolipin-1 (Homo sapiens), Q9GZU1 | TRPML1-expressing cells, Ca2+ dye fluorescence, FDSS; host cell line not named in the record; reference of the full effect not given here | activation, % (no concentration beside the values) | 410,000 compounds, 0.12% hits | AID 624414, 2012; in the data active = activation above about 50%; inconclusive = about 30% to 50%; inactive = below about 30%; further: 0% is about no effect; the text of the record puts the active cut at 80%
#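 Cells: TRPML1-DL, 1X Tet inducer, ~16 h at 37 degrees C/5% CO2. Dye: ABD Ca8 no-wash + quencher, 45-90 min RT. Read: 10 s baseline, compound add, 110 s agonist phase; 54-4 EC80 (4uM final), 110 s antagonist phase.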
# * = called active by the depositor; ? = inconclusive; . = not tested or not shown; & = joins results of further samples; [ ] = another dose, or the depositor's remark.
No.	SMILES	PINK1 expr mod	TRPML1 blocker	ClpP mod	Menin-MLL FL inh	TRPV1 PAM	Sfp inh	TRPML1 ag
1	Cc1c(C(O)CN2CCC(C(N)=O)CC2)c2ccccc2n1C (configuration not stated)	0.6%	12	-0.5%	-1.0	9	9%	-0.1
2	Cc1ccc(Sc2c(C)nn(-c3ccccc3)c2OC(=O)CC(C)C)cc1	1.4%	-3	-0.5%	.	.	.	1.4
3	Cc1cc(S(=O)(=O)Nc2c(NC3CCCCC3)c3ccccc3oc2=O)ccc1F	2.1%	-12	-11%	.	-16	-1%	20
4	CC(=O)c1ccc(N2CCN(C(=O)C3CCN(S(=O)(=O)c4ccc5c(c4)CC(C)N5C(C)=O)CC3)CC2)cc1 (configuration not stated)	3.5%	-11	-18%	-0.4	-11	5%	-1.0
5	Cc1ccc(NC(=O)CCC(=O)N/N=C/c2ccco2)c(C)c1	5.1%	4	-4.9%	4.7	-17	4%	-1.1
6	Cc1ccc(C(C)C)c(OCC(=O)NC(=S)Nc2ccccc2N2CCOCC2)c1	?	43	0.5%	1.1	-8	17%	0.4
7	Cc1ccc(C(=O)COC(=O)c2cc(-c3ccc(Cl)cc3)nc3ccccc23)cc1	1.2%	6	-9.2%	.	.	.	-0.9
8	O=C(CCCC(=O)N(CC(=O)NC1CCCCC1)c1cccc(F)c1)Nc1ccccn1	0.4%	19	.	-3.2	3	18%	1.3
9	O=C(Cc1ccccc1)NCC1OCCc2ccccc21 (configuration not stated)	0.6%	10	-3.2%	2.1	-7	6%	-0.2
10	CN(C)S(=O)(=O)Oc1cc(Cl)ccc1C(=O)Nc1ccc(F)cc1F	1.2%	24	.	0.5	-5	16%	5.8
11	Cc1cc(C)c2cc(CN(Cc3nnnn3Cc3ccc(F)cc3)C3CCCC3)c(=O)[nH]c2c1	12%[38.3 µM]	-6	-12%	?	21	?	0.0
12	CCCCOC(=O)CNc1n[nH]c(=S)[nH]c1=O	8.7%[38.3 µM]	-2	0.2%	4.4	17	56µM*	3.9
13	CCOC(=O)N1CCC(NC(=O)c2ccc(CNS(=O)(=O)c3ccc(F)cc3)cc2)CC1	0.5%[38.3 µM]	3	0.3%	-8.9	4	9%	-0.1
14	CCn1c(SCC(N)=O)nc2c(c1=O)C1(CCCC1)Cc1ccccc1-2	0.0%	36	-14%	2.5	-12	6%	1.3
15	CCOc1ccc(CCNC(=O)Cn2c(-c3cccs3)cc3ccccc32)cc1	2.2%	-21	?	.	.	.	1.7
16	CC(C)CC(=O)Nc1c2c(nn1-c1ccc(F)cc1)CS(=O)(=O)C2	2.4%	32	.	-0.6	-20	1%	0.9
17	COc1cc(NC(=O)CN2C(=O)COc3ccc(S(=O)(=O)NC4CCCC4)cc32)cc(OC)c1	1.3%	3	1.2%	.	.	.	1.8
18	CC(C)OC(=O)CCNc1n[nH]c(=O)[nH]c1=O	-1.0%	-5	-2.1%	-0.1	-1	27%	-0.5
19	Cc1ccc(CSc2ncc(Cl)c(C(=O)Nc3nnc(C)s3)n2)cc1	2.8%	10	-1.1%	.	.	.	1.5
20	O=C(C(=O)N1CCN(c2cccc(Cl)c2)CC1)c1cn(CC(=O)N2CCOCC2)c2ccccc12	1.9%	-1	-0.9%	.	2	-3%	0.7
21	COc1cc2c(cc1OC)C(C(=O)O)C(c1ccc(C)o1)N(C)C2=O (configuration not stated)	-1.3%	-8	-3.1%	0.7	2	14%	1.7
22	Oc1c(Cl)cc(Cl)cc1C=Nc1ccccc1N1CCCC1	.	.	.	5.5	15	-6%	.
23	CCCc1nc(-c2ccccc2O)n(-c2ccccc2)n1	3.2%	-5	-4.3%	0.3	-5	1%	0.9
24	COc1cccc(NC(=O)Nc2nc(SC)ns2)c1	?	14	.	3.6	0	15%	-0.2
25	C=CCCC(=O)Nc1nc(C)c(-c2csc(Nc3cc(OC)ccc3OC)n2)s1	4.4%	19	?	1.8	-14	1%	1.7
26	CCC(=O)N/C(=N/c1nc(C)cc(C)n1)Nc1ccc(C)cc1	-1.1%	0	-3.5%	-2.0	-19	18%	1.4
27	CCc1cccc2c(C(=O)COC(=O)c3cnc(C)cn3)c[nH]c12	-1.8%	-8	-2.6%	.	-3	.	-0.6
28	O=C(CSc1ccccn1)Nc1cccc2ccccc12	1.7%	21	.	1.5	11	13%	-0.6
29	CCC(=O)N1c2ccc(S(=O)(=O)CCC(=O)N3CCN(c4ccccc4)CC3)cc2CC1C (configuration not stated)	-0.1%	1	-1.6%	2.3	7	-1%	-0.4
30	COc1ccc(NS(=O)(=O)c2ccc(F)c(Cl)c2)cn1	-1.1%	-5	-6.2%	?	-14	19%	2.0

# Along the list, from the results shown:
# Compounds 7–14 in TRPML1 blocker, in turn: 6, 19, 10, 24, -6, -2, 3, 36
# Compounds 7–14 in ClpP mod, in turn: -9.2%, ., -3.2%, ., -12%, 0.2%, 0.3%, -14%

# (next part)
No.	SMILES	PINK1 expr mod	TRPML1 blocker	ClpP mod	Menin-MLL FL inh	TRPV1 PAM	Sfp inh	TRPML1 ag
31	O=C(Nc1nncs1)c1cc(-c2ccco2)nc2ccccc12	-1.3%	5	-19%	.	.	.	-0.6
32	COc1ccc(-n2ccnc(NCc3ccccc3OC)c2=O)cc1	-0.3%	39	-13%	.	.	.	0.4
33	C/C(=N\NC(=O)c1ccn(C)n1)c1ccco1	4.2%	-3	.	4.5	8	20%	0.5
34	Cc1noc(C)c1CSCC(=O)Nc1cc(Cl)ccc1N1CCOCC1	0.1%	-16	0.9%	0.1	-10	4%	1.0
35	O=C(N/N=C/c1ccoc1)c1ccccc1Br	-1.3%	32	-1.9%	1.9	-7	8%	1.3
36	C/C(CCc1ccccc1)=N\NC(=O)CCc1ccccc1	0.1%	-5	-4.3%	1.8	12	10%	-0.4
37	CC(=O)c1c(C)[nH]c(C(=O)COC(=O)c2cccc(S(=O)(=O)N(C)c3ccccc3)c2)c1C	1.9%	-4	-27%	6.3	12	3%	0.2
38	Cc1ccc(-c2noc(CSc3nnc(-c4ccc(Cl)cc4)n3C)n2)cc1	1.0%	-14	0.5%	.	.	.	0.7
39	Cc1ccccc1Nc1n[nH]c(=S)s1	1.0%	14	0.6%	.	.	.	0.3
40	COc1ccc(NC(=S)N(CCN2CCCCC2)Cc2ccco2)cc1	-0.3%	6	.	-2.5	-16	-22%	-0.1
41	CC(=O)NCCOc1ccc(C(=O)O)cc1	-1.2%	-5	-2.3%	4.8	13	11%	0.0
42	Cc1ccc(S(=O)(=O)CC(=O)Nc2ncc([N+](=O)[O-])s2)cc1	1.4%	20	.	-4.4	4	2%	-0.5
43	Cc1ccc2[nH]cc(CCCN3C(=O)c4ccccc4C3=O)c2c1	0.2%	3	-1.3%	0.8	-2	5%	3.2
44	CCOC(=O)C1CCN(C(=O)C2CCCN(S(=O)(=O)c3ccc(OC)c(Cl)c3)C2)CC1 (configuration not stated)	0.8%	-4	-0.3%	.	-19	4%	0.2
45	CCOc1nc2ccccc2cc1C=O	5.0%	41	.	1.9	22	3%	0.8

# Entries listed above that bear a hit mark in Sfp inh.
no.	structure	TRPML1 blocker	Menin-MLL FL inh	Sfp inh
12	CCCCOC(=O)CNc1n[nH]c(=S)[nH]c1=O	-2	4.4	56µM*

# Single values from the entries so far:
# TRPV1 PAM, entry 8 is entered as 3
# TRPV1 PAM, entry 11 is entered as 21
# TRPML1 ag, entry 21 is entered as 1.7

# The list goes on.
No.	SMILES	PINK1 expr mod	TRPML1 blocker	ClpP mod	Menin-MLL FL inh	TRPV1 PAM	Sfp inh	TRPML1 ag
46	c1ccc(-c2n[nH]c3ccccc23)cc1	6.8%[38.3 µM]	13	-9.0%	0.9	-10	?	-0.7
47	COc1ccc(N2CCN(S(=O)(=O)CCNS(=O)(=O)c3ccccc3)CC2)cc1	0.5%	12	3.0%	.	7	.	-0.3
48	COc1ccc(/C=N/N=C(\N)c2nonc2N)cc1OC	2.4%	-10	.	4.6	3	5%	-0.7
49	S=C(NCc1ccco1)N/N=C/c1ccncc1	-2.0%	9	.	3.2	7	20%	-1.2
50	O=C(Nc1ccccc1)Nc1cccc2ccccc12	0.2%	-6	.	2.0	-13	-9%	0.7
51	Cc1nn(-c2ccccc2)c(Cl)c1/C=N/NC(=O)c1ccccc1F	2.8%	11	0.4%	3.8	-16	16%	0.1
52	O=C(COc1ccccc1)OC(C(=O)c1ccccc1)c1ccccc1 (configuration not stated)	-0.4%	4	0.3%	9.7	0	9%	5.0
53	CCOc1ccc(NC(=O)Cc2ccc(S(=O)(=O)N3CCCCC3)cc2)cc1OCC	-0.2%	-1	-0.3%	.	.	.	-0.4
54	CCCCc1nc(Cl)c(CO)n1Cc1ccc(-c2ccccc2-c2nnn[nH]2)cc1	0.9%	-5	-2.5%	.	.	.	-0.7
55	Cc1ccc(N(C(=O)Nc2ccccc2)C2=NCCC2)cc1	1.1%	3	.	4.2	11	-15%	0.6
56	Cc1ccc(Nc2nnc(-c3ccc(C)c(S(=O)(=O)N4CCOCC4)c3)c3ccccc23)c(C)c1	-0.3%	24	-30%	.	.	.	2.2
57	Cc1ccc(NC(=O)N[C@H](C(=O)O)C(C)C)c(C)c1	6.0%	-18	.	-1.1	-9	14%	0.6
58	COc1ccccc1CNC(=O)CCS(=O)(=O)c1ccc2c(c1)CC(C)N2C(=O)C1CC1 (configuration not stated)	2.5%&1.4%	-14&0	2.8%&1.8%	.	-3	22%	3.0&-0.8
59	COc1cc(-c2nn3c(-c4cccnc4)nnc3s2)cc(OC)c1OC	1.8%[38.3 µM]	-9	?	-0.9	5	9%	-0.3
60	CCCC1C2CN(C(C)=O)CC=C2C(C#N)=C(N)C1(C#N)C#N (configuration not stated)	-1.3%	-23	-15%	?	-5	-6%	1.0
61	Cc1ccc(S(=O)(=O)N(CCCN(C)C)Cc2ccc3c(c2)OCO3)cc1	-0.3%	8	-3.0%	-29	-17	5%	-0.8

# Compound activity from PubChem.
